PfHsp40 yeast – compounds rescuing yeast from Plasmodium falciparum HSP40 toxicity. S. cerevisiae expressing PfHsp40, growth rescue, ATP luminescence. growth rescue, % at 12.5 µM. actives 0.68% (n = 340,000). AID 504582; in the data active = growth rescue above about 28%, passing the limit was not always enough;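 note: yeast W303a lacking pdr1 and pdr3 grown in galactose medium; growth measured after three days at 30 °C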
FadD28 FP inh – inhibitors of Mycobacterium tuberculosis FadD28 bisubstrate binding; FadD28 bisubstrate probe binding, fluorescence polarization; inhibition, % at 12.5 µM; actives 0.22% (n = 360,000); AID 588549; in the data active = inhibition above about 8.5%, passing the limit was not always enough
PrPC surface inh – reduces human prion protein on the cell surface | cell surface PrPC, TR-FRET read-out | inhibition, % at 13.8 µM | actives 0.43% (n = 370,000); in the data active = inhibition above about 24%; note: 0% = median of the test wells and 100% = reference compound wells
An asterisk follows results filed as active; & = joins results of further samples.

structure | PfHsp40 yeast | FadD28 FP inh | PrPC surface inh
Cn1c(=O)c2c(ncn2C)n(C)c1=O | -1.9 | -1.1 | -7
COc1c(N2C[C@@H]3CCCN[C@@H]3C2)c(F)cc2c(=O)c(C(=O)O)cn(C3CC3)c12 | -1.5 | -0.8 | 2
Cc1cnc(NC(=O)C2C(=O)c3ccccc3S(=O)(=O)N2C)s1 (configuration not stated) | -1.0 | -0.5 | 0
Cc1cnc(NC(=O)C2=C(O)c3ccccc3S(=O)(=O)N2C)s1 | -0.9&1.9&-2.5&-1.9 | -2.9&-1.2&1.1&-0.4 | -6&4&2&5
CC(C)(C(=O)O)c1ccc(C(O)CCCN2CCC(C(O)(c3ccccc3)c3ccccc3)CC2)cc1 (configuration not stated) | -1.0 | -0.7 | 6
CC(C)NCC(O)COc1cccc2ccccc12 (configuration not stated) | -2.7 | 0.4 | 12
O=C(O)CCNC(=O)c1ccccc1 | -0.9 | -2.9 | -4
C=C1C/C(=C/C)C(=O)O[C@@H]2CCN3CC=C(COC(=O)[C@]1(C)O)[C@H]23 | 0.9 | -1.4 | -2
CN1C2CCC1CC(OC(=O)C(CO)c1ccccc1)C2 (configuration not stated) | -0.1 | -3.8 | 5
CN(C)c1ccc(O)c2c1CC1CC3[C@@H](N(C)C)C(=O)C(C(N)=O)C(=O)[C@]3(O)C(=O)C1C2=O (some centres not stated) | 1.3 | -1.1 | -4
CN1CCCC1c1cccnc1 (configuration not stated) | 0.1 | -1.8 | 12

2 entries picked at random from those above:
structure | PfHsp40 yeast | FadD28 FP inh | PrPC surface inh
COc1c(N2C[C@@H]3CCCN[C@@H]3C2)c(F)cc2c(=O)c(C(=O)O)cn(C3CC3)c12 | -1.5 | -0.8 | 2
CC(C)(C(=O)O)c1ccc(C(O)CCCN2CCC(C(O)(c3ccccc3)c3ccccc3)CC2)cc1 (configuration not stated) | -1.0 | -0.7 | 6

Some of these compounds in order of count of non-hydrogen atoms, descending.
structure | PfHsp40 yeast | FadD28 FP inh | PrPC surface inh
CN(C)c1ccc(O)c2c1CC1CC3[C@@H](N(C)C)C(=O)C(C(N)=O)C(=O)[C@]3(O)C(=O)C1C2=O (some centres not stated) | 1.3 | -1.1 | -4
CN1C2CCC1CC(OC(=O)C(CO)c1ccccc1)C2 (configuration not stated) | -0.1 | -3.8 | 5
CN1CCCC1c1cccnc1 (configuration not stated) | 0.1 | -1.8 | 12

Some of the compounds tested; the hit share may differ from the screen's.
